Bioassay records (PubChem)
FGF22 binding: binders of human FGF22 protein, primary screen, FGF22 synaptogenesis inhibitor project, biophysical, thermal shift, single point | recombinant FGF22 thermal shift, SYPRO orange fluorescence; percent of sucrose octasulfate shift, DMSO zero | calls only at 9.99 µM | hit rate 1.5% among 340,000;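 active = melting point raised past a set limit in the mean and every replicate; inconclusive = no clear call; three in four hits are not shown here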
Target sequence (Q9HCT0 whole entry, looked up): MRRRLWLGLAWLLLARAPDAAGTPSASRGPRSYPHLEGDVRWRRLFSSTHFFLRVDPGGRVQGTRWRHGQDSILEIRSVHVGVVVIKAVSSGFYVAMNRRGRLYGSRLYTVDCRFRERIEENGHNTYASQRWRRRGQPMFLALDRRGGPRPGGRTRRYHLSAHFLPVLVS
Beta cell apopt: inhibitors of cytokine-induced beta cell apoptosis, primary screen, luminescence | hit rate 0.8% among 300,000 | protection from apoptosis, % (no concentration beside the values) | INS-1E cytokine-induced death, ATP luminescence, 48 h; percent of positive-control rescue, neutral wells zero;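 active = all replicates at 75% or more, or half of them and the mean; inconclusive = half reach 75% but not the mean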;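 also: 0% = cytokine-treated negative control wells and 100% = positive control rescue; higher means more ATP so stronger rescue from cytokine killing; wells of about 40 µL received 100 nL stock; the first replicate is given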
T cruzi repl: inhibitors of intracellular T. cruzi growth, primary screen, luminescence, NIH3T3 host cells | hit rate 1.4% among 300,000 | T. cruzi beta-gal in NIH3T3, 90 h | inhibition, % (no concentration beside the values) | AID 1885, 2009;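 active = mean inhibition across valid replicates above about 55%, limit read from the data; inconclusive = mean below that limit but half or more replicates reach it; inactive = mean below it, under half of replicates reach it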;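 also: signal also drops with host cell toxicity which is not excluded here; 0% = plate median of DMSO wells and 100% = zero luminescence signal; higher percent means less beta-gal luminescence so fewer parasites; stock transfer was 50 nL into about 50 µL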
Calb FLC: C. albicans growth inhibition with fluconazole, primary screen, CaCi-2 strain, Alamar Blue fluorescence | C. albicans CaCi-2 (fluconazole-resistant clinical isolate) + fluconazole, 48 h | growth inhibition, % (test concentration not listed) | hit rate 0.57% among 300,000;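 active = most replicates above 75%; inconclusive = exactly half above 75%; inactive = most below 75%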;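 also: all wells also contain fluconazole at 8 µg/ml as a sub-toxic cotreatment; 0% = median of DMSO wells and 100% = median of geldanamycin control wells; wells of about 8 µL received 7.5 nL stock; the first replicate is given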
ALR inh: inhibitors of human ALR sulfhydryl oxidase, primary screen, biochemical, H2O2 detection, HRP-luminol luminescence, single point; inhibition, % (concentration not given with the values); purified ALR, DTT oxidation; FAD-linked sulfhydryl oxidase ALR (Homo sapiens), P55789; hit rate 3.8% among 290,000;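 active = mean and each replicate at 75% or more; inconclusive = only one of the two met; inactive = neither met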;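 also: stock transfer was 7.5 nL into about 7.5 µL; 0% = neutral wells and 100% = wells with inactivated enzyme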
Target sequence (P55789 whole entry, looked up): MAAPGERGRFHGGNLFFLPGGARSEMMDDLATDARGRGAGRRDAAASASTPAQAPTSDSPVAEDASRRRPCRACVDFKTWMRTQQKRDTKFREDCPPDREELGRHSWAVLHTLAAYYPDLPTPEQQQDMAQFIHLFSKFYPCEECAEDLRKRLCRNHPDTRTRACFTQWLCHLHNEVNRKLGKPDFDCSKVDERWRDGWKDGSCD
RanGTP-Impb inh: inhibitors of RanGTP-importin-beta interaction, primary screen, biochemical, FRET, CFP-Ran, YFP-importin-beta, homogeneous | Ran GTPase (GTP-bound) - importin-beta complex | cell-free CFP-Ran/YFP-importin-beta FRET ratio | inhibition, % (concentration not given with the values) | hit rate 1.1% among 300,000;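 active = most replicates above 15%; inconclusive = exactly half above 15%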;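 also: 0% = DMSO wells and 100% = Ran loaded with GDP instead of GTP; wells of about 40 µL received 100 nL stock; the first replicate is given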
AF4-AF9 inh: inhibitors of AF4 peptide binding to AF9, primary screen, biochemical, AlphaScreen, biotin-AF4 peptide, FLAG-AF9, single point; AID 651704, 2012; Protein AF-9 (Homo sapiens), P42568; hit rate 0.47% among 350,000; inhibition, % at 10 µM;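 active = every replicate reaching a set inhibition limit, whatever the replicate mean, cut at about 25% in these data; inconclusive = mean inhibition reaches that limit but some replicates miss it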;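 also: 0% = plate neutral control median and 100% = total signal loss; the record names both 10 and 1 µM as test concentration; the first replicate is given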
Target sequence (P42568 whole entry, looked up): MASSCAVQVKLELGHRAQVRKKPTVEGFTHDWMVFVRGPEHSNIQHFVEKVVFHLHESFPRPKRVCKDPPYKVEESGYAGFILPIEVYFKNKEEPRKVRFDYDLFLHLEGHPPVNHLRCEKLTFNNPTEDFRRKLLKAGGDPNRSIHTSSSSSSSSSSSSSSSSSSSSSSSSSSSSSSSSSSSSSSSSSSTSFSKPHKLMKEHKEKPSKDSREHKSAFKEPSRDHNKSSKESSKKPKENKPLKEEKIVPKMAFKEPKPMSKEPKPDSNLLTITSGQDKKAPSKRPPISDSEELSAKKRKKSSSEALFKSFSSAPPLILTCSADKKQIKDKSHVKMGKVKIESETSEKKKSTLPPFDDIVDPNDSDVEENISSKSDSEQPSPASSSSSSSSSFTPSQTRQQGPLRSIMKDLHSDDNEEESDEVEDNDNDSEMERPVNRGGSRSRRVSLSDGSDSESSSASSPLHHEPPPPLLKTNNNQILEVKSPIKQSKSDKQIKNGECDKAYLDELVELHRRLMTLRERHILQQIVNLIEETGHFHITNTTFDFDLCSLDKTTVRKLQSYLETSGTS
rRNA inh HTS: reduced GFP signal of wild-type E. coli, primary screen, bacterial rRNA inhibitor project, GFP/RFP fluorescence, OD600, single point; hit rate 1.6% among 350,000; E. coli WT GFP vs humanized-ribosome RFP mutants, 24 h; active compounds read low; DMSO median 0, no signal -100; GFP signal change (wild-type ribosome), % (concentration not given with the values);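 active = significant combined selectivity score with lowered wild-type GFP, culture density cut under 30%, mutant RFP and density less affected; inactive = any of these conditions unmet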; also: one replicate is shown; some compounds called inactive have numbers as strong as hits
rRNA inh HTS OD600: further read-out of rRNA inh HTS, marked with its call; OD600 change, %; measured here: OD600 growth;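 optical density of the mix in the first replicate; 0 = DMSO median and -100 = no signal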
rRNA inh HTS RFP: further read-out of rRNA inh HTS, marked with its call; RFP signal change, %; measured here: RFP humanized mutant strains;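 first replicate; 0 = DMSO median and -100 = no signal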
* = called active by the depositor; i = inactive; ? = inconclusive; · = no result given. These rows are one share of the data; the hit share may differ from the screen's.

SMILES	FGF22 binding	Beta cell apopt	T cruzi repl	Calb FLC	ALR inh	RanGTP-Impb inh	AF4-AF9 inh	rRNA inh HTS	rRNA inh HTS OD600	rRNA inh HTS RFP
O=C(NCCCn1ccnc1)C(=O)Nc1ccccc1	i	2	-13	27	·	1.9	1.6	11	6	0.1
O=C(CCC(=O)NC12CC3CC(CC(C3)C1)C2)NC1CCCCC1	i	2	-1	-53	26	6.5	-0.9	11	7	1.2
COc1ccccc1CN(C)C(=O)C(c1ccccc1)c1ccccc1	i	32	23	-14	-2	-1.4	-2.3	-32	-55	3.1
COc1ccccc1-n1cnc2sc(-c3ccccc3)cc2c1=O	i	3	4	-2	-2	0.9	2.8	·	·	·
O=C(c1cccs1)N1CCN(C2CCN(Cc3ccccc3)CC2)CC1	·	-4	20	-4	-3	?	·	·	·	·
CC(=O)C1=C(O)C(=O)N(CCC(=O)O)C1c1cccc(F)c1 (stereo not drawn)	·	-7	-9	1	-15	-4.8	·	·	·	·
O=C(NCC1CCCO1)c1cccc(N2CCCC2=O)c1 (stereo not drawn)	·	1	2	-22	-15	-0.4	·	·	·	·
O=C(COC(=O)c1cc([N+](=O)[O-])ccc1N1CCOCC1)NCc1ccc(Cl)cc1Cl	i	1	6	9	5	-0.4	6.2	-13	-10	9.6
O=S(=O)(/N=C(/Nc1ccccc1F)c1ccccc1)c1ccccc1	·	2	2	-2	-2	-3.6	·	·	·	·
C=CCNC(=S)N/N=C/c1ccc(C(F)(F)F)cc1	i	4	15	26	·	5.3	-0.6	5	4	3.0
O=c1[nH]c(SCc2n[nH]c(=S)n2-c2ccccc2)nc2sc3c(c12)CCC3	·	-6	8	3	2	1.6	·	·	·	·
C(=C\n1nnc2ccccc21)/c1ccc[nH]1	i	9	3	-10	25	-2.6	-6.9	8	1	-6.3

As a short view, 10 of the compounds above.
SMILES	FGF22 binding	Beta cell apopt	T cruzi repl	Calb FLC	ALR inh	RanGTP-Impb inh	AF4-AF9 inh	rRNA inh HTS	rRNA inh HTS OD600	rRNA inh HTS RFP
COc1ccccc1CN(C)C(=O)C(c1ccccc1)c1ccccc1	i	32	23	-14	-2	-1.4	-2.3	-32	-55	3.1
COc1ccccc1-n1cnc2sc(-c3ccccc3)cc2c1=O	i	3	4	-2	-2	0.9	2.8	·	·	·
O=C(c1cccs1)N1CCN(C2CCN(Cc3ccccc3)CC2)CC1	·	-4	20	-4	-3	?	·	·	·	·
CC(=O)C1=C(O)C(=O)N(CCC(=O)O)C1c1cccc(F)c1 (stereo not drawn)	·	-7	-9	1	-15	-4.8	·	·	·	·
O=C(NCC1CCCO1)c1cccc(N2CCCC2=O)c1 (stereo not drawn)	·	1	2	-22	-15	-0.4	·	·	·	·
O=C(COC(=O)c1cc([N+](=O)[O-])ccc1N1CCOCC1)NCc1ccc(Cl)cc1Cl	i	1	6	9	5	-0.4	6.2	-13	-10	9.6
O=S(=O)(/N=C(/Nc1ccccc1F)c1ccccc1)c1ccccc1	·	2	2	-2	-2	-3.6	·	·	·	·
C=CCNC(=S)N/N=C/c1ccc(C(F)(F)F)cc1	i	4	15	26	·	5.3	-0.6	5	4	3.0
O=c1[nH]c(SCc2n[nH]c(=S)n2-c2ccccc2)nc2sc3c(c12)CCC3	·	-6	8	3	2	1.6	·	·	·	·
C(=C\n1nnc2ccccc21)/c1ccc[nH]1	i	9	3	-10	25	-2.6	-6.9	8	1	-6.3

Later entries.
SMILES	FGF22 binding	Beta cell apopt	T cruzi repl	Calb FLC	ALR inh	RanGTP-Impb inh	AF4-AF9 inh	rRNA inh HTS	rRNA inh HTS OD600	rRNA inh HTS RFP
COc1ccc(S(=O)(=O)Nc2ccc(-n3cnnn3)cc2)cc1[N+](=O)[O-]	i	-10	·	·	·	·	0.0	-5	6	-1.3
OCCC1CN(Cc2cccn2-c2ccccn2)CCN1C1CCCC1 (stereo not drawn)	·	-1	-1	-3	5	?	5.0	14	12	-0.5
Cc1cc(C)c(NC(=S)NC(NC(=O)c2ccccc2)C(Cl)(Cl)Cl)c(C)c1 (stereo not drawn)	·	6	-1	1	3	0.7	·	·	·	·
O=S1(=O)NC[C@]23C[C@H](c4ccc(F)cc4)[C@@H](C[C@@H]21)O3	·	·	-33	-5	2	-2.1	·	·	·	·
CCn1c(N)c(C(=O)NCc2ccc3c(c2)OCO3)sc1=S	·	0	-11	-1	99*	-0.2	·	·	·	·
C=CCn1c(SCC(=O)Nc2nc3ccccc3s2)nnc1-c1ccccc1O	·	-1	28	1	-17	3.4	·	·	·	·
COc1ccc(-c2[nH]ncc2/C=N\NC(=O)c2ccc(Br)o2)cc1OC	i	-6	-6	1	5	1.1	2.3	-4	7	4.1
CN1CCC(=O)N([C@H](COc2ccccc2)Cc2ccccc2)CC1	i	-6	-16	-27	-9	-0.9	0.4	7	10	-11
Nc1ccc2oc(C3CCCCC3)nc2c1	i	-3	-7	-20	4	4.4	2.4	1	11	-6.6
O=C(Nc1ccc2c(c1)OCO2)c1cnc2n(c1=O)CCS2	·	0	5	-9	-18	-1.6	·	·	·	·
Cc1cccc(C)c1NC(=S)N1CCCCCC1	i	-9	-16	-5	1	1.6	-0.3	1	8	-3.4
O=C(O)CSCCn1cccn1	·	-5	-11	-1	-9	-3.2	·	·	·	·
O=C(c1cc(COc2ccc(F)cc2F)on1)N1C[C@H]2CC[C@H]1C2	i	-5	-7	-5	-15	-1.2	-0.3	-6	-8	1.6
CCOC(=O)c1ccccc1NC(=O)Nc1ccc(OC)c(OC)c1	·	0	-15	17	-53	5.6	·	·	·	·
CC(C)(C)c1ccc(OCCCNC2CCCC2)cc1	i	-1	47	-2	2	0.4	1.9	-30	-57	25
O=C(NCCc1ccccc1)C(=O)NCC1OCCCN1S(=O)(=O)c1cccs1 (stereo not drawn)	i	-2	23	3	-24	-0.4	-14	-3	2	-3.1
CCOc1ccc(NC(=O)C2CCN(C(=O)C3CC(=O)N(c4ccc(C)cc4)C3)CC2)cc1 (stereo not drawn)	i	-10	7	-7	-16	-0.5	2.2	0	-3	-3.5
Fc1ccc(Br)cc1/C=N/n1cnnc1	·	-5	0	·	-1	1.5	·	·	·	·
Nc1nc(SCc2ccccc2Cl)ns1	·	-16	1	-32	·	-1.7	·	·	·	·
NS(=O)(=O)c1cccc(NC(=O)CSc2n[nH]c(-c3cccs3)n2)c1	i	-8	·	·	0	·	-4.0	-10	-9	-4.6
COc1ccc(-c2cc(C(F)(F)F)nc(SCC(=O)NCc3cccs3)n2)cc1OC	·	1	24	1	7	0.4	·	·	·	·
COc1ccc(N=C2C(=O)Nc3ccccc32)cc1	·	-4	6	-32	86*	8.4	·	·	·	·
NS(=O)(=O)c1ccc(CNS(=O)(=O)c2ccc3ccccc3c2)cc1	i	-9	-4	-1	0	-0.5	-2.5	1	-2	-0.8
O=C(NCCN1CCOCC1)C1CCN(S(=O)(=O)N2CCCC2)CC1	i	2	-9	11	18	-3.1	-1.2	17	3	-2.9
CCc1cccc(C)c1NC(=O)CCCSc1nc2ccccc2s1	·	-5	-5	11	·	0.9	·	·	·	·
Cc1cc(NC(=O)c2cc(-c3ccccc3)on2)no1	·	-3	-24	-13	-2	1.8	·	·	·	·
O=C(CCC(=O)Nc1ccc(F)cc1)N/N=C/c1cccs1	i	-5	-17	1	0	1.4	-1.6	8	13	1.0
COc1cc(CN2CCC(CO)(Cc3cccc(C(F)(F)F)c3)CC2)ccc1F	i	7	33	8	-10	5.0	-12	-2	-10	6.1
O=C(NCCCN1CCCC1=O)C1CCC(CNS(=O)(=O)c2ccc(Cl)cc2)CC1 (stereo not drawn)	i	·	-9	11	-1	1.6	3.2	0	1	1.2
c1ccc(Cn2nc(-c3ccccc3)nc2-c2ccccc2)cc1	·	5	11	1	·	1.4	·	·	·	·
CC(=O)Nc1ccc(S(=O)(=O)NC(C(=O)O)C(C)C)cc1 (stereo not drawn)	i	-12	-2	17	-4	4.1	-37	15	12	-1.8
O=C(CNC(=O)c1cccc(Cl)c1)N/N=C/C=C/c1ccccc1	·	-3	2	2	-26	-1.9	·	·	·	·
Cc1ccc(NC(=O)c2cc3ccccc3oc2=N)cc1	i	2	-4	·	26	-5.9	-2.0	-3	2	0.1
Cc1ccc(N(CC(O)CON=C2c3ccccc3-c3ccccc32)S(C)(=O)=O)cc1 (stereo not drawn)	i	·	?	-24	2	?	-4.6	-12	-30	7.1
CCOC(=O)C1=C(C)N(CCCCCC(=O)O)C(=O)NC1c1ccccc1Cl (stereo not drawn)	i	3	-19	21	-3	-0.8	-8.9	-4	6	-3.3
Cc1cccc(NC(=O)COc2nsnc2N2CCOCC2)c1	·	-8	6	2	12	-0.3	·	·	·	·
c1csc(CNCc2ccncc2)c1	i	-1	2	16	-18	-1.8	0.4	11	8	-5.8
CCCCNC(=S)N/N=C/c1ccc(OCC(=O)Nc2c(C)cc(C)cc2C)c(OC)c1	i	-1	6	-5	-10	-2.8	0.9	-2	0	-2.2
COc1cccc(CSc2nccn2C)c1	i	2	-13	2	-36	-0.1	1.2	18	6	0.5
O=C1C2C(C(=O)N1/N=C/c1ccc(N3CCCCC3)o1)C1C=CC2C12CC2 (stereo not drawn)	·	-15	-21	-4	9	3.0	·	·	·	·
CCC(C)NS(=O)(=O)c1ccc(NC(C)=O)cc1 (stereo not drawn)	i	·	-9	-2	-16	2.0	2.9	6	10	-1.6
CCCCC(=O)C1CCN(Cc2ccccc2)CC1	·	0	8	-12	0	3.6	·	·	·	·
O=C(Nc1ccc2c(c1)CCC2)c1cccc(S(=O)(=O)N2CCN(c3ccccc3)CC2)c1	·	6	22	-18	·	6.0	·	·	·	·
O=C(O)c1ccccc1-c1cc2ccccc2[nH]1	i	5	3	7	11	-64	-1.7	-9	5	1.8
CCN(CC)c1ccc(S(=O)(=O)N2CCOCC2)cc1NC(=O)CSc1nncn1C	i	-2	·	·	-1	·	1.8	9	3	-1.3
